Compound activity as filed in PubChem.
DUX4 inh = inhibitors of DUX4-driven ZSCAN4 reporter expression, primary screen, 293T cells, Gaussia and Italica luciferase; 293T-iDUX4 ZSCAN4-Gaussia luciferase reporter, 24 h; stronger effect = lower value; activity change, negative = inhibition, % (concentration not given with the values); 37,000 tested, 0.8% active; AID 1224904, 2016;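 active = -10% or lower and over 25 points stronger than a control reporter; inconclusive = -10% or lower with a smaller gap; inactive = above -10%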;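 note: 0% = median of neutral control wells and -100% = median of positive control wells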
DUX4 inh difference = recorded beside DUX4 inh, whose call it bears; Gaussia minus Italica difference, %; measured here: selective DUX4 reporter inhibition;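 worked out from the two reporters; negative = selective loss of the DUX4 reporter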
DUX4 inh control = second read-out of DUX4 inh, no call of its own (marks repeat the call); activity change, negative = inhibition, %; measured here: Italica tet-on control reporter;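 0 = neutral control and -100 = positive control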
Numbers without * were called inactive; u = inconclusive; x = not tested or not shown.

SMILES	DUX4 inh	DUX4 inh difference	DUX4 inh control
O=C(c1cccc(F)c1)N1CCCCN2[C@H](CO)[C@@H](c3ccc(C#CC4(O)CCCC4)cc3)[C@H]2C1	-1.9	4.2	-6.1
COc1ccc(-c2ccc([C@@H]3[C@@H](C#N)N(C(=O)C4CCCC4)[C@H]3CO)cc2)cc1	3.7	0.6	3.1
COc1ccc2c3c([nH]c2c1)[C@H](CO)N(CC1CC1)CC31CN(C(=O)NC2CCCC2)C1	6.2	9.9	-3.7
COc1ccc(S(=O)(=O)N(C)C[C@@H]2Oc3ccc(NS(=O)(=O)c4c(C)noc4C)cc3C(=O)N([C@H](C)CO)C[C@@H]2C)cc1	-3.1	-2.9	-0.2
O=C(CC(F)(F)F)N1C[C@H]2[C@@H](c3ccccc31)[C@@H](CO)N2C(=O)Cc1cccnc1	3.0	0.7	2.3
Cc1ccc(S(=O)(=O)Nc2ccc3c(c2)CC(=O)N([C@@H](C)CO)C[C@H](C)[C@H](CN(C)Cc2ccc(Cl)c(Cl)c2)O3)cc1	-3.2	-0.9	-2.2
COCC(=O)N(C)C[C@H]1[C@H](c2ccccc2)[C@H](CO)N1C(=O)Cc1ccncc1	-2.6	-2.1	-0.5
C/C=C/c1ccc([C@@H]2[C@@H](CO)N(C(C)=O)C23CN(C(=O)c2ccccc2)C3)cc1	6.9	10.7	-3.8
C/C=C/c1cnc2c(c1)C(=O)N([C@H](C)CO)C[C@H](C)[C@@H](CN(C)C(=O)Nc1cccc(OC)c1)O2	-4.5	-3.4	-1.1
CN(C)C(=O)c1cccc(-c2ccc([C@@H]3[C@H]4CN(C(=O)Cc5ccccc5)CC(=O)N4[C@H]3CO)cc2)c1	6.8	0.4	6.5
CC(C)NC(=O)Nc1cccc2c1O[C@@H](CN(C)C(=O)Nc1ccccc1)[C@@H](C)CN([C@H](C)CO)C2=O	-3.0	0.7	-3.6
C[C@@H]1CN([C@H](C)CO)C(=O)Cc2cc(NC(=O)NC3CCCCC3)ccc2O[C@@H]1CN(C)C(=O)Nc1ccc(C(F)(F)F)cc1	-0.1	-0.2	0.1
COc1ccc(-c2ccc3c(c2)[C@@H]2[C@@H](CCN2C(=O)c2ccc4c(c2)OCO4)[C@H](CO)N3C)cc1	u	x	x
CCS(=O)(=O)N1CC(=O)N2[C@H](C1)[C@H](c1ccc(-c3ccccc3F)cc1)[C@@H]2CO	-7.5	-1.7	-5.8
CN(C)C(=O)C[C@H]1CC[C@H]2[C@@H](COC[C@H](O)CN2C(=O)c2ccncc2)O1	9.3	4.2	5.2
O=C(C[C@@H]1C[C@@H]2c3cc(NC(=O)NC4CCCCC4)ccc3O[C@@H]2[C@H](CO)O1)NCCc1ccccc1	1.0	-6.8	7.8
Cc1noc(C)c1NC(=O)Nc1ccc2c(c1)CC(=O)N([C@@H](C)CO)C[C@@H](C)[C@@H](CN(C)S(=O)(=O)c1cccs1)O2	-1.3	0.2	-1.4
O=C(C[C@@H]1C=C[C@H](NC(=O)C2CC2)[C@@H](CO)O1)NCc1ccncc1	2.1	4.6	-2.4
O=C(c1ccc2c(c1)OCO2)N1CC(=O)N2[C@H](C1)[C@@H](c1ccc(C#CC3CCCC3)cc1)[C@@H]2CO	u	x	x
C[C@@H]1CN([C@@H](C)CO)C(=O)Cc2cc(NC(=O)CCN3CCOCC3)ccc2O[C@H]1CN(C)Cc1ccc(C(=O)O)cc1	-6.0	-8.5	2.5
COc1ccc(NC(=O)Nc2ccc3c(c2)[C@H]2C[C@H](CC(=O)NCC4CC4)O[C@H](CO)[C@H]2O3)cc1	0.0	3.7	-3.6
C/C=C/c1ccc([C@@H]2[C@@H](CO)N(C(=O)NCCC)[C@H]2CNC(=O)C2CC2)cc1	-4.3	-5.5	1.3
O=C(CC1CC1)N1CC(=O)N2[C@@H](CO)[C@@H](c3ccc(C#Cc4cccc(F)c4)cc3)[C@@H]2C1	u	x	x
CCCNC(=O)N[C@H]1C=C[C@H](CC(=O)N2CCN(C)CC2)O[C@H]1CO	-0.6	0.8	-1.3
COc1ccccc1NC(=O)N1C[C@H](O)COC[C@@H]2O[C@@H](CC(=O)NCCc3ccncc3)CC[C@H]21	9.2	4.1	5.1
C[C@@H]1CN([C@H](C)CO)C(=O)CCCn2nncc2CO[C@@H]1CN(C)S(=O)(=O)c1cccs1	5.9	3.7	2.3
N#C[C@@H]1[C@H](c2ccccc2/C=C/c2ccccc2)[C@H](CO)N1S(=O)(=O)c1ccc(F)cc1	u	x	x
O=S(=O)(c1cccc(F)c1)N1CC[C@H]2[C@H](CO)Nc3ccc(-c4cccc(F)c4)cc3[C@H]21	u	x	x
CCNC(=O)C[C@@H]1CC[C@@H]2[C@H](COC[C@H](O)CN2Cc2ccccc2F)O1	8.8	3.6	5.1
CCCN(C)C[C@H]1Oc2cc(/C=C/c3ccccc3)ccc2S(=O)(=O)N([C@@H](C)CO)C[C@H]1C	-9.0	3.8	-12.8
C[C@@H]1CN([C@@H](C)CO)S(=O)(=O)c2ccc(C#Cc3ccccn3)cc2O[C@@H]1CN(C)Cc1cccc(F)c1	-3.2	-0.7	-2.5
O=C(NC[C@@H]1[C@@H](c2ccccc2)[C@@H](CO)N1C(=O)C1CCC1)NC1CCCC1	-2.9	0.3	-3.2
N#Cc1ccc(-c2ccc3c(c2)[C@H]2[C@H](CCN2S(=O)(=O)c2ccccc2F)[C@@H](CO)N3)cc1	u	x	x
N#C[C@@H]1[C@H](c2ccccc2)[C@@H](CO)N1C(=O)CCN1CCCCC1	-2.3	-2.0	-0.3
C[C@H]1CN([C@@H](C)CO)C(=O)c2cc(NC(=O)Nc3ccc(C(F)(F)F)cc3)ccc2O[C@H]1CN(C)Cc1ccc(C(=O)O)cc1	-3.4	-1.2	-2.2
C[C@H](CO)N1C[C@H](C)[C@@H](CN(C)C(=O)[C@@H]2CCCN2C)OCc2ccccc2-c2ccccc2C1=O	8.8	1.7	7.1

Shown with the structure last: entries from further up
DUX4 inh | DUX4 inh difference | DUX4 inh control | SMILES
5.9 | 3.7 | 2.3 | C[C@@H]1CN([C@H](C)CO)C(=O)CCCn2nncc2CO[C@@H]1CN(C)S(=O)(=O)c1cccs1
u | x | x | N#C[C@@H]1[C@H](c2ccccc2/C=C/c2ccccc2)[C@H](CO)N1S(=O)(=O)c1ccc(F)cc1
u | x | x | O=S(=O)(c1cccc(F)c1)N1CC[C@H]2[C@H](CO)Nc3ccc(-c4cccc(F)c4)cc3[C@H]21
8.8 | 3.6 | 5.1 | CCNC(=O)C[C@@H]1CC[C@@H]2[C@H](COC[C@H](O)CN2Cc2ccccc2F)O1
-9.0 | 3.8 | -12.8 | CCCN(C)C[C@H]1Oc2cc(/C=C/c3ccccc3)ccc2S(=O)(=O)N([C@@H](C)CO)C[C@H]1C
-3.2 | -0.7 | -2.5 | C[C@@H]1CN([C@@H](C)CO)S(=O)(=O)c2ccc(C#Cc3ccccn3)cc2O[C@@H]1CN(C)Cc1cccc(F)c1
-2.9 | 0.3 | -3.2 | O=C(NC[C@@H]1[C@@H](c2ccccc2)[C@@H](CO)N1C(=O)C1CCC1)NC1CCCC1
u | x | x | N#Cc1ccc(-c2ccc3c(c2)[C@H]2[C@H](CCN2S(=O)(=O)c2ccccc2F)[C@@H](CO)N3)cc1
-2.3 | -2.0 | -0.3 | N#C[C@@H]1[C@H](c2ccccc2)[C@@H](CO)N1C(=O)CCN1CCCCC1
-3.4 | -1.2 | -2.2 | C[C@H]1CN([C@@H](C)CO)C(=O)c2cc(NC(=O)Nc3ccc(C(F)(F)F)cc3)ccc2O[C@H]1CN(C)Cc1ccc(C(=O)O)cc1
8.8 | 1.7 | 7.1 | C[C@H](CO)N1C[C@H](C)[C@@H](CN(C)C(=O)[C@@H]2CCCN2C)OCc2ccccc2-c2ccccc2C1=O

Other records
SMILES	DUX4 inh	DUX4 inh difference	DUX4 inh control
O=C(Nc1ccccc1F)N1CC(=O)N2[C@H](C1)[C@@H](c1ccc(C#CC3CC3)cc1)[C@@H]2CO	u	x	x
COc1ccccc1CNC(=O)C[C@@H]1C[C@@H]2c3cc(NC(=O)c4ccc5c(c4)OCO5)ccc3O[C@@H]2[C@H](CO)O1	6.0	9.7	-3.8
C[C@@H]1CN([C@H](C)CO)C(=O)c2cc(C#CC3(O)CCCC3)cnc2O[C@@H]1CN(C)Cc1ccccc1	0.3	-1.8	2.1
O=C(C[C@@H]1C[C@@H]2c3cc(NC(=O)c4cccnc4)ccc3O[C@@H]2[C@@H](CO)O1)NCc1cc(F)ccc1F	4.1	7.2	-3.1
CCCNC(=O)[C@@H]1[C@@H](CO)[C@@H]2Cn3c(ccc(-c4ccccc4F)c3=O)[C@@H]2N1C	1.7	5.5	-3.8
O=C(C[C@H]1CC[C@H]2[C@@H](COC[C@H](O)CN2C(=O)c2ccccc2F)O1)N1CCCCC1	0.8	2.8	-2.0
O=C(C[C@@H]1CC[C@H]2[C@@H](COC[C@H](O)CN2C(=O)Nc2ccc(Cl)c(Cl)c2)O1)NCc1ccc(F)cc1	-9.3	-4.2	-5.1
CC(=O)N1[C@H](CO)[C@@H](c2ccccc2)[C@@H]1CN(CC1CCC1)C(=O)CC1CC1	-1.3	-2.3	1.0
O=C(C[C@@H]1CC[C@H]2[C@@H](COC[C@H](O)CN2C(=O)Nc2ccc(F)cc2)O1)NCC1CC1	7.6	7.5	0.1
CCCC(=O)Nc1ccc2c(c1)OC[C@H](C)N(CC1CCOCC1)C[C@@H](C)[C@@H](OC)CN(C)C2=O	-7.5	-8.0	0.5
O=C(C[C@@H]1CC[C@H]2[C@@H](COC[C@H](O)CN2C(=O)c2cnccn2)O1)NCc1ccc(F)cc1	5.3	4.9	0.4
CCCNC(=O)N[C@H]1CC[C@H](CCn2cc(C3CC3)nn2)O[C@H]1CO	4.9	1.4	3.5
CN(C)CC(=O)Nc1ccc2c(c1)[C@@H]1C[C@H](CC(=O)NCc3cccc(F)c3)O[C@H](CO)[C@@H]1O2	4.5	-2.3	6.8
C[C@H](NC(=O)[C@H]1[C@H](CO)[C@H]2Cn3c(ccc(C4=CCCC4)c3=O)[C@@H]1N2C(=O)C1CC1)c1ccccc1	1.7	4.9	-3.2
CNC(=O)C[C@@H]1CC[C@@H]2[C@H](COC[C@H](O)CN2C(=O)c2ccc3c(c2)OCO3)O1	5.8	8.9	-3.1
CCCc1cn(CC[C@@H]2CC[C@H](NC(=O)C3CCOCC3)[C@@H](CO)O2)nn1	-1.4	-6.8	5.5
Cc1noc(C)c1S(=O)(=O)N(C)C[C@@H]1OCCCC[C@H](C)Oc2ccc(NC(=O)CCC(F)(F)F)cc2C(=O)N([C@@H](C)CO)C[C@H]1C	-3.7	-0.8	-2.9
CCCC(=O)N1CC2(C1)CN(C(=O)Nc1c(C)noc1C)[C@H](CO)c1c2c2ccc(OC)cc2n1C	24.9	13.1	11.9
CCC(=O)N1CC2(CN(Cc3ccc(Cl)cc3)C2)c2c([nH]c3cc(OC)ccc23)[C@H]1CO	1.3	-2.0	3.3
Cc1ccc(S(=O)(=O)N(C)C[C@H]2Oc3cc(C#CC4CCCC4)ccc3S(=O)(=O)N([C@@H](C)CO)C[C@@H]2C)cc1	2.2	0.6	1.6
CC(C)NC(=O)N1CC2(C1)[C@H](c1ccccc1)[C@@H](CO)N2Cc1cccnc1	5.4	-3.3	8.7
COC(=O)[C@H]1[C@H](CO)[C@H]2Cn3c(ccc(-c4cccc(F)c4)c3=O)[C@H]2N1C(=O)CC1CC1	-1.7	-13.6	11.8
O=C(C[C@H]1CC[C@@H]2[C@H](COC[C@H](O)CN2Cc2cccc(-c3ccncc3)c2)O1)N1CCOCC1	9.1	8.4	0.8
C[C@H](CO)N1C[C@H](C)[C@H](CN(C)Cc2ccncc2)Oc2ncc(-c3ccc(F)cc3)cc2C1=O	0.2	0.3	-0.1
Cc1ccc(S(=O)(=O)NCC[C@@H]2CC[C@H](NC(=O)CCN3CCCCC3)[C@H](CO)O2)cc1	3.7	0.5	3.2
O=C(NCC[C@@H]1CC[C@H](NC(=O)c2ccccc2F)[C@@H](CO)O1)c1cnccn1	-2.2	-3.7	1.4
O=C(C1CCCC1)N1CC2(C1)[C@H](c1ccccc1)[C@@H](CO)N2C(=O)c1cccnc1	6.8	6.3	0.6
CO[C@H](CN(C)S(=O)(=O)c1ccc(C)cc1)[C@@H](C)CN([C@H](C)CO)S(=O)(=O)c1cccc(Cl)c1	3.0	2.1	0.9
CCCNC(=O)[C@H]1[C@H](CO)[C@H]2Cn3c(ccc(-c4ccc(OC)cc4)c3=O)[C@H]2N1CCC	0.4	5.2	-4.8
COC(=O)[C@@H]1[C@@H](CO)[C@@H]2Cn3c(ccc(/C=C/c4ccccc4)c3=O)[C@@H]2N1C(=O)CC1CC1	4.9	7.2	-2.3
COc1ccc(NC(=O)N[C@H]2CC[C@@H](CCNS(=O)(=O)c3cccc(Cl)c3)O[C@H]2CO)cc1	u	x	x
CN(C)CCCNC(=O)[C@H]1[C@H](CO)[C@H]2Cn3c(cccc3=O)[C@@H]1N2C(=O)Nc1cc(F)ccc1F	2.0	0.2	1.8
CO[C@@H]1CC[C@H]2CCOc3c(C#N)cccc3C(=O)N(C)C[C@H](C)C(=O)N(C)C[C@H]1O2	2.5	3.4	-0.9
CO[C@H](CN(C)C(=O)c1ccccc1F)[C@H](C)CN([C@@H](C)CO)S(=O)(=O)c1ccc(C)cc1	-4.7	-2.3	-2.4
COCC(=O)Nc1ccc2c(c1)OC[C@H](C)N(Cc1ccncc1)C[C@@H](C)[C@H](OC)CN(C)C2=O	-5.0	-4.7	-0.3
COc1ccc2c3c([nH]c2c1)[C@@H](CO)N(S(C)(=O)=O)CC31CCN(CC2CCCC2)CC1	u	x	x
Cc1ccc(-c2ccccc2[C@@H]2[C@H](C#N)N(C(=O)c3cccc(F)c3)[C@H]2CO)cc1	-9.9	-0.3	-9.6
O=C(NC1CCC1)[C@@H]1[C@@H](CO)[C@@H]2Cn3c(cccc3=O)[C@H]1N2CC1CCCC1	-0.5	0.6	-1.1

These rows are one share of the data; the hit share may differ from the screen's.
